Compound activity as filed in PubChem.
AF4-AF9 inh – inhibitors of human MLL-AF4/AF9 interaction | AlphaScreen, biotin-AF4 peptide binding to FLAG-AF9 | 350,000 tested, 0.47% active | inhibition, % at 10 µM;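 active = every replicate reaching a set inhibition limit, whatever the replicate mean, cut at about 25% in these data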;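 also: 0% = plate neutral control median and 100% = total signal loss; the record names both 10 and 1 µM as test concentration; the first replicate is given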
Target sequence (P42568 whole entry, looked up): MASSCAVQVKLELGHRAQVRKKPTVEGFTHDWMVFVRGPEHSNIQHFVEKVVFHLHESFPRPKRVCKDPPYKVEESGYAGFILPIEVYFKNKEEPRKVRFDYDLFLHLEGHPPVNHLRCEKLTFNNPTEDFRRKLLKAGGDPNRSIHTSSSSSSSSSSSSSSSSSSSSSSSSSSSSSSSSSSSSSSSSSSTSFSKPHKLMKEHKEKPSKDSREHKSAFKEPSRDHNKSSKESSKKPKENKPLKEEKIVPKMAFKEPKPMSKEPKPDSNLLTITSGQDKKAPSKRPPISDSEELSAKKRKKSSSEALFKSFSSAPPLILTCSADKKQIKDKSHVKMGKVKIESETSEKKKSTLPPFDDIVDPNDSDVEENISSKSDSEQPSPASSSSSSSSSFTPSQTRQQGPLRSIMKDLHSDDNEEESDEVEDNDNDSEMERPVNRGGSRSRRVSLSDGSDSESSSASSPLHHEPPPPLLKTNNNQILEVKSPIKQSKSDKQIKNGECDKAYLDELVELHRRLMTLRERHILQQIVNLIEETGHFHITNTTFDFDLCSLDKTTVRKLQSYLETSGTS
An asterisk follows results filed as active. Some of the compounds tested, so the mix of outcomes need not match the whole.

SMILES | AF4-AF9 inh
Cc1cc(C)n2nc(CNS(=O)(=O)c3ccc(C(C)(C)C)cc3)nc2n1 | -8.3
O=C(c1cnccn1)N1CC[C@@H]2[C@H]1c1cc(C#Cc3cccnc3)ccc1N[C@@H]2CO | -4.8
CC1(C(=O)Nc2ccccc2)CCN1C(=O)CCc1ccc(Cl)cc1Cl (centres undefined) | -1.8
CCNC(=O)C[C@H]1CC[C@@H](NC(=O)C2CC2)[C@@H](CO)O1 | -0.9
CO[C@@H]1CN(C)C(=O)c2ccc(NS(C)(=O)=O)cc2OC[C@@H](C)N(C)C[C@@H]1C | -0.6
CN1CCN(C(=O)c2cccc(-c3ccc4nccn4c3)c2)CC1 | -1.4
CC1(C(=O)NS(=O)(=O)c2ccc3c(c2)CCO3)CCN1C(=O)C1(c2ccc(Cl)cc2)CC1 (centres undefined) | -1.5
CC(C)C#Cc1cnc2c(c1)C(=O)N([C@H](C)CO)C[C@H](C)[C@H](CN(C)C(=O)c1ccccc1)O2 | -1.2
CN1CCN(C(=O)C[C@@H]2CC[C@H]3[C@@H](COC[C@@H](O)CN3C(=O)Nc3ccc(F)cc3)O2)CC1 | -3.3
CCCC#Cc1ccc2c(c1)O[C@H](CN(C)C(=O)Nc1ccccc1F)[C@@H](C)CN([C@H](C)CO)S2(=O)=O | 1.7
CC(C)CC#Cc1ccc2c(c1)O[C@@H](CN(C)CC1CC1)[C@@H](C)CN([C@@H](C)CO)S2(=O)=O | -3.0
Cn1c(=O)c2cc(NC(=O)CCc3cccc(Cl)c3)ccc2n1Cc1cccc(C(F)(F)F)c1 | 0.2
CCCC(=O)Nc1ccc2c(c1)OC[C@@H](C)N(Cc1ccccc1OC)C[C@@H](C)[C@H](OC)CN(C)C2=O | 1.1
C[C@@H]1CN([C@@H](C)CO)C(=O)c2cc(NC(=O)C3CCCCC3)ccc2O[C@@H]1CN(C)S(C)(=O)=O | -3.8
O=C(C(=O)N1CCN(C(=O)OCc2ccccc2)CC1)c1cccs1 | 0.6
O=C(C[C@@H]1CC[C@@H]2[C@H](COC[C@@H](O)CN2C(=O)Nc2cccc(Cl)c2)O1)NCc1ccccc1F | -1.6
COc1cccc(NC(=O)N(C)C[C@@H]2Oc3ncc(C#Cc4ccccc4)cc3C(=O)N([C@@H](C)CO)C[C@@H]2C)c1 | 3.2
Cc1noc(C)c1NC(=O)Nc1cccc2c1O[C@H](CN(C)Cc1ccncc1)[C@H](C)CN([C@H](C)CO)C2=O | -2.0
C[C@H]1CN([C@@H](C)CO)C(=O)Cc2cc(NC(=O)Cc3cn(C)c4ccccc34)ccc2O[C@H]1CN(C)S(=O)(=O)c1ccc(F)cc1 | 0.7
O=C(C[C@H]1CC[C@@H]2[C@H](COC[C@H](O)CN2Cc2ccccc2F)O1)N[C@@H]1CCN(Cc2ccccc2)C1 | 4.5
C[C@@H]1CN([C@@H](C)CO)C(=O)c2cc(NC(=O)CCCCCC(=O)Nc3ccccc3N)ccc2O[C@H]1CN(C)Cc1ccccc1 | -15
C[C@@H]1CN([C@@H](C)CO)C(=O)c2cc(NC(=O)CCC(F)(F)F)ccc2O[C@@H](C)CCCCO[C@@H]1CN(C)Cc1ccccc1 | -2.1
CN(C)C(=O)c1ccc(-c2ccc([C@@H]3[C@@H](C#N)N(C(=O)C4CCCC4)[C@H]3CO)cc2)cc1 | -0.8
COCC(=O)Nc1ccc2c(c1)[C@@H]1C[C@@H](CC(=O)NCc3ccccn3)O[C@@H](CO)[C@@H]1O2 | -15
O=C(C[C@@H]1C[C@H]2c3cc(NC(=O)c4cccnc4)ccc3O[C@H]2[C@H](CO)O1)NCCc1ccccc1 | -4.7
CC(C)C#Cc1ccc2c(c1)O[C@H](CN(C)S(=O)(=O)c1cn(C)cn1)[C@H](C)CN([C@H](C)CO)S2(=O)=O | -1.1
C[C@H](CO)N1C[C@H](C)[C@H](CN(C)C(=O)CCN(C)C)OCc2ccccc2-c2c(n(C)c3ccccc23)C1=O | 2.1
O=C(Nc1cccc(Cl)c1)N[C@H]1CC[C@@H](CCNC(=O)C2CCCCC2)O[C@@H]1CO | 1.7
CCOc1cc(N2CCC(O)CC2)ccc1Nc1ncc2c(n1)N(C)c1ccccc1C(=O)N2C | 9.7
CC1=C(C(=O)N2CCCCCC2)CC(CC(=O)NCC2CCCCC2)C(=O)N1CCCN1CCCC1=O (centres undefined) | -4.8
Cc1ccc(S(=O)(=O)N(C)C[C@H]2Oc3c(NC(=O)NC4CCCCC4)cccc3C(=O)N([C@H](C)CO)C[C@@H]2C)cc1 | 1.9
Cc1noc(C)c1S(=O)(=O)Nc1ccc2c(c1)C(=O)N([C@H](C)CO)C[C@H](C)[C@H](CN(C)C(=O)CCC(F)(F)F)OCCCC[C@@H](C)O2 | 5.3
O=C(C[C@H]1CC[C@H](NC(=O)Nc2ccccc2F)[C@H](CO)O1)NCc1ccccc1 | -0.2
C[C@@H]1CN([C@H](C)CO)C(=O)c2cc(NS(=O)(=O)c3ccc(Cl)cc3)ccc2O[C@H]1CN(C)S(=O)(=O)c1ccc(F)cc1 | -1.8
O=C(C[C@@H]1CC[C@H]2[C@@H](COC[C@H](O)CN2S(=O)(=O)c2cccc(F)c2)O1)Nc1ccc(-c2ccccc2)cc1 | 1.2
COc1ccc(CN(C)C[C@@H]2OCCCC[C@@H](C)Oc3ccc(NC(=O)Nc4c(C)noc4C)cc3C(=O)N([C@@H](C)CO)C[C@H]2C)cc1 | -0.5
CCNC(=O)C[C@H]1CC[C@H]2[C@@H](COc3ccc(NC(=O)c4ccc(C#N)cc4)cc3C(=O)N2C)O1 | -0.3
C[C@@H]1CCCCO[C@H](CN(C)S(=O)(=O)c2ccc(Cl)cc2)[C@H](C)CN([C@@H](C)CO)C(=O)c2cc(NC(=O)Nc3cccc4ccccc34)ccc2O1 | -2.5
CCS(=O)(=O)NCC[C@@H]1CC[C@@H](NC(=O)C2CCOCC2)[C@@H](CO)O1 | -2.8
CCC(=O)N1C[C@H](C)[C@H](OC)CN(C)C(=O)c2ccc(NC(=O)Nc3ccccc3)cc2OC[C@H]1C | 1.5
O=C(N[C@H]1CC[C@H](CCNS(=O)(=O)c2ccc(F)cc2)O[C@H]1CO)c1cccc(F)c1 | -5.9
CCC(=O)N1CC(=O)N2[C@H](CO)[C@H](c3ccc(C#CCc4ccccc4)cc3)[C@@H]2C1 | -2.1
Cc1ccc(S(=O)(=O)Nc2ccc3c(c2)C(=O)N([C@H](C)CO)C[C@@H](C)[C@H](CN(C)Cc2ccc(C(F)(F)F)cc2)OCCCC[C@H](C)O3)cc1 | 1.6
O=C(O)C[C@H]1C[C@@H]2c3cc(NC(=O)NC4CCCC4)ccc3O[C@@H]2[C@H](CO)O1 | -0.3
C[C@@H]1CCCCO[C@@H](CN(C)Cc2ccc3c(c2)OCO3)[C@@H](C)CN([C@H](C)CO)C(=O)c2cc(NC(=O)Nc3ccccc3)ccc2O1 | -2.1

4 of the compounds above, with the structure last.
| AF4-AF9 inh | compound |
| --- | --- |
| 5.3 | Cc1noc(C)c1S(=O)(=O)Nc1ccc2c(c1)C(=O)N([C@H](C)CO)C[C@H](C)[C@H](CN(C)C(=O)CCC(F)(F)F)OCCCC[C@@H](C)O2 |
| 1.5 | CCC(=O)N1C[C@H](C)[C@H](OC)CN(C)C(=O)c2ccc(NC(=O)Nc3ccccc3)cc2OC[C@H]1C |
| -0.3 | CCNC(=O)C[C@H]1CC[C@H]2[C@@H](COc3ccc(NC(=O)c4ccc(C#N)cc4)cc3C(=O)N2C)O1 |
| -2.1 | CCC(=O)N1CC(=O)N2[C@H](CO)[C@H](c3ccc(C#CCc4ccccc4)cc3)[C@@H]2C1 |

The results go on:
SMILES | AF4-AF9 inh
C[C@@H]1CN([C@H](C)CO)C(=O)c2cccc(NC(=O)c3nc4ccccc4s3)c2O[C@H]1CN(C)C(=O)NC1CCCCC1 | -0.6
COc1ccc(S(=O)(=O)Nc2ccc3c(c2)C(=O)N([C@H](C)CO)C[C@@H](C)[C@H](CN(C)C(=O)Nc2ccc4c(c2)OCO4)OCCCC[C@H](C)O3)cc1 | 2.4
C[C@@H]1CN([C@H](C)CO)C(=O)c2cc(NC(=O)CCN3CCOCC3)ccc2O[C@@H]1CN(C)CC1CC1 | -1.7
O=C(Nc1ccccc1)[C@H]1[C@H](CO)[C@H]2Cn3c(ccc(C4=CCCCC4)c3=O)[C@H]2N1Cc1ccccn1 | 5.2
O=C(NCc1ccccc1)C(C1CC1)n1c(-c2cccs2)nc2ccccc21 (centres undefined) | -1.5
CCNC(=O)[C@@H]1[C@@H](CO)[C@@H]2Cn3c(cccc3=O)[C@H]1N2CC1CCOCC1 | -4.0
COCCCN1C(=O)[C@@]2(Cc3ccccc31)c1ccccc1C(=O)N(Cc1ccccc1)[C@H]2c1ccc(CO)cc1 | -3.9
O=C(C[C@@H]1C[C@@H]2c3cc(NC(=O)C4CCOCC4)ccc3O[C@@H]2[C@@H](CO)O1)NC1CCCC1 | -0.8
C[C@@H]1CN([C@H](C)CO)C(=O)c2cc(N(C)C)ccc2O[C@@H]1CN(C)Cc1ccc(C(F)(F)F)cc1 | 17
CC(=O)N1CCCCN2[C@H](CO)[C@H](c3ccc(Br)cc3)[C@@H]2C1 | -2.3
CC=Cc1ccc2n(c1=O)C[C@@H]1[C@@H](CO)[C@H](C(=O)NCCC)[C@H]2N1CC1CCCC1 (mixture of isomers) | 1.7
COc1ccc(NC(=O)Nc2ccc3c(c2)[C@H]2C[C@@H](CC(=O)O)O[C@@H](CO)[C@H]2O3)cc1 | -2.1
C[C@@H]1CN([C@@H](C)CO)C(=O)Cc2cc(NC(=O)Cn3cnnn3)ccc2O[C@@H]1CN(C)S(=O)(=O)c1ccc(F)cc1 | 1.2
COc1ccccc1C(=O)N1C[C@H]2[C@@H](c3ccccc31)[C@H](CO)N2Cc1ccc(F)cc1 | 2.8
C[C@H](CO)N1C[C@H](C)[C@@H](CN(C)S(=O)(=O)c2ccc(Cl)cc2)Oc2c(NC(=O)Nc3cccc4ccccc34)cccc2C1=O | 1.8
O=C(Nc1ccccc1)N[C@H]1CC[C@@H](CCNC(=O)c2ccccc2F)O[C@H]1CO | 2.7
O=C(C[C@@H]1CC[C@@H]2[C@H](COC[C@H](O)CN2C(=O)Nc2ccccc2)O1)NCc1ccncn1 | 0.0
COc1cccc(NC(=O)N(C)C[C@@H]2Oc3ncc(C#Cc4ccccc4)cc3C(=O)N([C@H](C)CO)C[C@H]2C)c1 | 0.3
C[C@H]1CN([C@@H](C)CO)C(=O)c2cc(C#CCN(C)C)cnc2O[C@@H]1CN(C)Cc1ccc(F)cc1 | 6.3
C[C@@H]1CCCCO[C@@H](CN(C)S(=O)(=O)c2cn(C)cn2)[C@H](C)CN([C@@H](C)CO)C(=O)c2cc(NC(=O)Nc3ccc4c(c3)OCO4)ccc2O1 | -2.0
C[C@H]1CN([C@@H](C)CO)C(=O)Cc2cc(NC(=O)Nc3ccc(C(F)(F)F)cc3)ccc2O[C@H]1CN(C)S(=O)(=O)c1ccccc1 | 0.1
CCOC(=O)[C@]12CCC=C1N(Cc1ccc3c(c1)OCO3)C(=O)[C@H](CC(=O)N1CCCCC1)C2 | 1.8
Cc1ccc(S(=O)(=O)NCC[C@@H]2CC[C@@H](NC(=O)C3CCOCC3)[C@@H](CO)O2)cc1 | -3.0
C[C@@H]1CCCCO[C@H](CN(C)Cc2ccc(C(=O)O)cc2)[C@@H](C)CN([C@@H](C)CO)C(=O)c2cc(NC(=O)NC3CCCCC3)ccc2O1 | -4.1
CC(C)NC(=O)N(C)C[C@H]1Oc2ccc(NS(=O)(=O)c3ccccc3)cc2C(=O)N([C@@H](C)CO)C[C@H]1C | -0.8
CCCC(=O)Nc1ccc2c(c1)C(=O)N(C)C[C@H](OC)[C@@H](C)CN(C(=O)c1ccccn1)[C@H](C)CO2 | -2.7
C[C@@H](O)C#Cc1ccc([C@H]2[C@@H](CO)N3CCCCN(S(=O)(=O)c4ccccc4)C[C@H]23)cc1 | -5.0
O=C(Cc1ccccn1)NCC[C@@H]1CC[C@@H](NS(=O)(=O)c2ccccc2)[C@H](CO)O1 | -0.4
Cn1cnc(S(=O)(=O)N[C@@H]2C=C[C@H](CC(=O)Nc3ccc(-c4ccccc4)cc3)O[C@@H]2CO)c1 | -1.6
Cc1noc(C)c1S(=O)(=O)N(C)C[C@@H]1OCCCC[C@@H](C)Oc2ccc(N(C)C)cc2C(=O)N([C@@H](C)CO)C[C@H]1C | 2.8

Part of the list above in order of number of heavy atoms, rising:
SMILES | AF4-AF9 inh
O=C(Nc1ccccc1)N[C@H]1CC[C@@H](CCNC(=O)c2ccccc2F)O[C@H]1CO | 2.7
CC(C)NC(=O)N(C)C[C@H]1Oc2ccc(NS(=O)(=O)c3ccccc3)cc2C(=O)N([C@@H](C)CO)C[C@H]1C | -0.8
Cc1noc(C)c1S(=O)(=O)N(C)C[C@@H]1OCCCC[C@@H](C)Oc2ccc(N(C)C)cc2C(=O)N([C@@H](C)CO)C[C@H]1C | 2.8

Two compounds drawn at random from those above:
SMILES | AF4-AF9 inh
C[C@@H]1CCCCO[C@@H](CN(C)S(=O)(=O)c2cn(C)cn2)[C@H](C)CN([C@@H](C)CO)C(=O)c2cc(NC(=O)Nc3ccc4c(c3)OCO4)ccc2O1 | -2.0
C[C@@H](O)C#Cc1ccc([C@H]2[C@@H](CO)N3CCCCN(S(=O)(=O)c4ccccc4)C[C@H]23)cc1 | -5.0

Additional entries.
SMILES | AF4-AF9 inh
O=C(O)C[C@H]1C[C@@H]2c3cc(NC(=O)Nc4ccccc4F)ccc3O[C@@H]2[C@@H](CO)O1 | -2.7
C[C@H](CO)N1C[C@H](C)[C@H](CN(C)C(=O)C2CCCCC2)OCCCC[C@H](C)Oc2ccc(NS(C)(=O)=O)cc2C1=O | -2.6
CCC(=O)N1[C@@H](CO)[C@H](c2ccccc2)C12CN(C(=O)c1ccc3c(c1)OCO3)C2 | -1.5
COc1ccc2c3c(n(C)c2c1)[C@H](CO)N(C(=O)Nc1ccccc1F)CC31CCN(C(C)=O)CC1 | 0.2
COC(=O)[C@@]12C[C@@H](CC(=O)NCc3ccc(OC)c(OC)c3)C(=O)N(Cc3ccccc3)C1=CCC(C)(C)C2 | -6.5
COCC#Cc1cnc2c(c1)C(=O)N([C@H](C)CO)C[C@H](C)[C@H](CN(C)S(=O)(=O)c1cn(C)cn1)O2 | -1.5
